CtBP-E1A blk: qHTS Assay for Inhibitors of the CtBP/E1A Interaction; CtBP / adenovirus E1A interaction (AlphaScreen); AlphaScreen GST-E1A/His-CtBP binding, 1536-well; active compounds read low; control for the full effect not named in the record; activity change, % (no concentration beside the values); actives 0.49% (n = 340,000); in the data active means activity change below about -65%; inconclusive means about -30% to -65%; inactive means above about -30%; also: % is scaled to controls: 0 for no effect and ±100 for the full control effect
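Homogeneous bead-based format: GST-tagged E1A captured on glutathione donor beads, His-tagged CtBP on nickel acceptor beads; compounds precede bead addition by 2 h at 37 °C.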
TRPML1 ag: qHTS for Agonists of the Human Mucolipin Transient Receptor Potential 1 (TRPML1) | activation, % (no concentration beside the values) | TRPML1-expressing cells, Ca2+ dye fluorescence, FDSS; host cell line not named in the record; reference of the full effect not given here | actives 0.12% (n = 410,000) | Mucolipin-1 (Homo sapiens), Q9GZU1; in the data active = activation above about 50%; inconclusive = about 30% to 50%; inactive = below about 30%; also: 0% is about no effect; the text of the record puts the active cut at 80%
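Kinetic FDSS Ca2+ read in Tet-induced TRPML1-DL cells (ABD Ca8 dye plus quencher, 45-90 min RT loading): baseline, then compound, then 110 s agonist window; EC80 agonist 54-4 at 4uM final added afterwards for a 110 s antagonist window.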
D2 potentiator: Beta-Arrestin HTS for Positive Allosteric Modulators of the Human D2 Dopamine Receptor: Potentiators | D(2) dopamine receptor (Homo sapiens), P14416 | DiscoveRx D2 beta-arrestin cells, luminescence, 90 min; 100% = 57 uM dopamine signal | potentiation, % (test concentration not listed) | actives 0.23% (n = 360,000); active = potentiation of 50% or more; inconclusive = 30% to 50%; inactive = 30% or less;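 also: compound concentration not given in the record; tested on top of an EC20 dose of dopamine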
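D2 cells co-treated with compound plus 50 nM dopamine (EC20) for 90 min at 37 deg C to detect potentiation. Beta-arrestin recruitment was read as enzyme-fragment luminescence after 1 h at ambient temperature. Full response was set by 57 uM dopamine.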
PINK1 modulator: A Quantitative High throughput Screen to Identify Chemical Modulators of PINK1 Expression | PINK1 immunofluorescence, high-content cytometry, 24 h | Potency, µM (titrated, usually from 76.6 µM), inactives show at the highest dose activation (PINK1 increase), hits mostly activators | actives 0.2% (n = 410,000) | AID 624263, 2012; active = well fitted activation curve with a large enough effect; inconclusive = small, poorly fitted or top-dose-only effect; inactive = flat fitted curve, though single readings scatter; cell line not stated here;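 also: potency is read from the fitted curve at half-maximal effect; % of control where 0% means no effect; nearly all actives have a fitted effect of over 65% in size; a mitochondrial uncoupler was the plate control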
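Cells are seeded, rested 12 hours, then given compound at five concentrations or DMSO for 24 hours. After fixation, blocking and antibody staining, PINK1 amount and mitochondrial localization are scored; CCCP serves as control.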
D2 agonist: Beta-Arrestin HTS for Positive Allosteric Modulators of the Human D2 Dopamine Receptor: Agonists | D(2) dopamine receptor (Homo sapiens), P14416 | DiscoveRx PathHunter D2 beta-arrestin, luminescence, 90 min; 100% = 57 uM dopamine signal | activation, % (no concentration beside the values) | actives 0.084% (n = 360,000) | AID 624465, 2012; in the data active = activation above about 40%; inconclusive = about 15% to 40%; inactive = below about 15%; also: compound concentration not given in the record; the text of the record calls up to 30% inactive
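DiscoveRx PathHunter D2 beta-arrestin cells (2,100/well) attached overnight, then compound-stimulated 90 min at 37 C in HBSS/10 mM HEPES/0.1% Tween-20 buffer; beta-galactosidase complementation read by luminescence after 1 h at ambient temperature. Dopamine 57 uM final (EC100) as control.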
Six1-Eya2 inh: qHTS Assay for Inhibitors of the Six1/Eya2 Interaction; Homeobox protein SIX1 (Homo sapiens) + Protein phosphatase EYA2 (Homo sapiens), …; AlphaScreen GST-Six1/His-Eya2 binding, biochemical; active compounds read low; control for the full effect not named in the record; activity change, % (test concentration not listed); actives 0.56% (n = 360,000); AID 651725, 2012; in the data active = activity change below about -65%; inconclusive = about -30% to -65%; inactive = above about -30%; also: % is scaled to controls: 0 for no effect and ±100 for the full control effect
Target sequence (O00167 whole entry, looked up): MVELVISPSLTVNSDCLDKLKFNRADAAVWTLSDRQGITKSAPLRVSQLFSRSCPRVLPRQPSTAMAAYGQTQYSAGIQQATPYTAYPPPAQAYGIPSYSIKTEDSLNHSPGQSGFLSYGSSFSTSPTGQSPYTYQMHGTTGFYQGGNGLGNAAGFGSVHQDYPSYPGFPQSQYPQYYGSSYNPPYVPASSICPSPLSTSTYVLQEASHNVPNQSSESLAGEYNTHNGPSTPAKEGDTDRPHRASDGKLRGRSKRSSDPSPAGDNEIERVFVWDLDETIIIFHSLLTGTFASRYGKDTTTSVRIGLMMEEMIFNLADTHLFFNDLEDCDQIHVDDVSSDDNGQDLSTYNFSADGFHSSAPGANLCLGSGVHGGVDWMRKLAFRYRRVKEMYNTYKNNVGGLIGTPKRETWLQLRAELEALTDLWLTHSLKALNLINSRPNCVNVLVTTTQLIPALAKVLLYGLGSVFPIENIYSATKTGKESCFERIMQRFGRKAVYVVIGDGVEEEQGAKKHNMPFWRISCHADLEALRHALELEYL
Target sequence (Q15475 whole entry, looked up): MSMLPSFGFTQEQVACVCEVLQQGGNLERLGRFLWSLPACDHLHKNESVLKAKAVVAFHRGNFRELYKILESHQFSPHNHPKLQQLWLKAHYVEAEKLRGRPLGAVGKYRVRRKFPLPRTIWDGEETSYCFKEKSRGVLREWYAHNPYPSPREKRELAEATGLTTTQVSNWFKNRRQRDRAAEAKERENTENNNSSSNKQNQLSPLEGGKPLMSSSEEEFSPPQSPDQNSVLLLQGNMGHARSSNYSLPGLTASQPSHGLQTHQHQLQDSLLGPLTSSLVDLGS
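Six1/Eya2 binding was read as AlphaScreen signal after compounds were pinned into GST-Six1 plus His-tagged Eya2 (5X stock 250/500 nM) in pH 8.0 Tris/NaCl/TCEP buffer, beads added, then incubated 1 h, 37 C, dark.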
Starred values were filed as active, the others as inactive; ? = inconclusive; . = not tested or not shown; [ ] = remark or other dose.

entry	molecule	CtBP-E1A blk	TRPML1 ag	D2 potentiator	PINK1 modulator	D2 agonist	Six1-Eya2 inh
1	O=C(CCC(=O)N(CC(=O)NC1CCCCC1)Cc1ccccc1)Nc1nccs1	3	-0.1	-9	0.1%	-1.2	-3
2	COC(=O)c1cccc(NC(=O)CN2CCOCC2)c1	12	1.8	-5	-0.1%[38.3 µM]	0.4	2
3	COCCNC(=O)C(c1ccncc1)N(C(=O)Cn1nnc2ccccc21)c1ccc(OC)cc1 (configuration not stated)	3	-0.3	12	0.5%	3.6	0
4	O=C(/C=C/c1ccco1)Nc1cccnc1	6	0.2	0	1.7%	-1.2	-1
5	CN1CCCN(C(=O)CNC(=O)c2ccc(Cl)cc2Cl)CC1	0	0.0	-6	0.4%	0.0	6
6	O=C(COC(=O)[C@@H]1CC(O)CN1S(=O)(=O)c1ccc2c(c1)OCCO2)NCc1ccc(F)cc1 (some centres not stated)	10	-0.1	-4	0.3%	2.2	1
7	COc1cccc(/C=C/C(=C2/C(=O)N(c3ccccc3)N=C2C)c2ccccc2)c1OC	4	0.5	-14	1.9%	1.4	0
8	O=C(CSc1ncnc2scc(-c3ccccc3)c12)NCc1ccc2c(c1)OCO2	0	1.4	4	0.9%	-0.5	-9
9	CC1CCCC(C)N1NC(=O)Cc1ccccc1 (configuration not stated)	-7	-0.2	-4	1.9%	-1.0	-2
10	CC(=O)NC(CC(=O)NC1CCCCCC1)c1ccccc1 (configuration not stated)	-22	-0.8	-28	3.6%	-5.8	-6
11	O=C(CSCc1ccccc1F)NCc1ccc(F)cc1	11	0.3	1	0.6%	3.5	3
12	CCC(C)N(C(=O)CSc1nnc(COc2ccccc2F)n1N)C1CCS(=O)(=O)C1 (configuration not stated)	3	0.1	3	-2.3%	-2.5	1
13	COc1ccc(NC(=O)c2ccc(NS(=O)(=O)c3c(C)noc3C)cc2)cc1OC	-2	-1.0	-3	1.4%	-4.6	-3
14	C/C(=N\Nc1nc(C)cc(-c2ccccc2)n1)c1ccc(C)o1	-13	-0.2	-7	0.1%	-3.8	-17
15	Cc1cc(C)c(S(=O)(=O)c2cccc(C(F)(F)F)c2)c(=O)[nH]1	0	-1.0	-7	2.8%	-4.1	2
16	Cc1cc(C)c(C#N)c(N2CCN(c3ccccc3F)CC2)n1	.	1.0	1	1.4%	-0.8	-1
17	CCOC(=O)[C@]12CCCC=C1N(Cc1ccc(Cl)cc1Cl)C(=O)[C@H](CC(=O)NCc1ccc(C)o1)C2	-7	0.4	.	3.8%	.	-1
18	CC(=O)c1cccc(CN2CCN(CCc3ccccc3)C(CCO)C2)c1 (configuration not stated)	-5	-0.3	-26	-1.0%	-2.5	3
19	CN(C)S(=O)(=O)c1cc(NC(=O)CN2CCN(c3ccc(O)cc3)CC2)ccc1Cl	-5	-1.1	-16	-0.6%	11	-2
20	COc1ccc2[nH]cc(CCNC(=O)Cc3ccc(Br)cc3)c2c1	-1	-1.7	2	0.2%	4.9	-8

Part of the list above, with one line to a screen.
(3) COCCNC(=O)C(c1ccncc1)N(C(=O)Cn1nnc2ccccc21)c1ccc(OC)cc1 (configuration not stated)
(6) O=C(COC(=O)[C@@H]1CC(O)CN1S(=O)(=O)c1ccc2c(c1)OCCO2)NCc1ccc(F)cc1 (some centres not stated)
(9) CC1CCCC(C)N1NC(=O)Cc1ccccc1 (configuration not stated)
(14) C/C(=N\Nc1nc(C)cc(-c2ccccc2)n1)c1ccc(C)o1

| Screen / compound no. | 3 | 6 | 9 | 14 |
| --- | --- | --- | --- | --- |
| CtBP-E1A blk | 3 | 10 | -7 | -13 |
| TRPML1 ag | -0.3 | -0.1 | -0.2 | -0.2 |
| D2 potentiator | 12 | -4 | -4 | -7 |
| PINK1 modulator | 0.5% | 0.3% | 1.9% | 0.1% |
| D2 agonist | 3.6 | 2.2 | -1.0 | -3.8 |
| Six1-Eya2 inh | 0 | 1 | -2 | -17 |

(listing goes on)
entry	molecule	CtBP-E1A blk	TRPML1 ag	D2 potentiator	PINK1 modulator	D2 agonist	Six1-Eya2 inh
21	NC(=O)c1nc(-c2ccco2)nc2c1[nH]c(=O)n2-c1ccc(Cl)c(Cl)c1	-3	-0.6	-2	5.6%	-2.5	-10
22	COc1cccc(NC(=O)CCC2CCN(C(=O)c3c(C)noc3C)CC2)c1	-15	0.0	-10	-0.6%	4.6	6
23	O=C(CSc1ccc(Cl)cc1)Nc1ccc(-c2nc3ccccc3[nH]2)cc1	7	0.7	-11	16%	5.3	1
24	O=C1c2ccccc2C(=O)N1CCCc1nc(-c2ccccc2)no1	6	-0.4	-6	-3.2%[38.3 µM]	-1.1	1
25	O=S(=O)(c1cccs1)N1CCN(CCOc2ccc(Cl)cc2)CC1	1	-0.6	1	0.6%	5.8	-1
26	CCN1C(=O)CC(NC2CCN(C(=O)c3ccc(F)cc3)CC2)C1=O (configuration not stated)	11	0.1	8	0.3%	3.6	-2
27	Cn1c(=O)c2c(nc(Br)n2CCCc2ccccc2)n(C)c1=O	-15	1.3	-8	2.5%	0.9	-21
28	Cc1ccc(S(=O)(=O)N2CCCC(C(=O)NCCC(C)C)C2)cc1 (configuration not stated)	-4	-1.2	18	2.6%	-2.0	5
29	COc1cc([N+](=O)[O-])cc(/C=N/NC(=O)Cn2nc(C)cc2C)c1O	?	-0.8	-6	-1.0%	-6.3	-91*
30	OCc1cn(-c2ccccc2)nc1-c1cc2ccccc2o1	2	1.4	-6	2.4%	-3.3	23
31	CCOc1ccc(S(=O)(=O)Nc2cccc(-c3ccc(N4CCCCCC4)nn3)c2)cc1	-9	-0.8	-14	-0.8%	-3.0	-7
32	COCCNC(=O)c1ccc(-n2c(SCc3ccncc3)nc3ccccc3c2=O)cc1	17	-0.2	-9	0.6%	-1.9	-2
33	Cc1ccc(S(=O)(=O)NCC(=O)OCC(=O)N2C(C)CCCC2C)cc1 (configuration not stated)	0	-0.6	-4	1.7%	0.2	0
34	O=C(N/N=C/c1ccccn1)C1CC1	0	3.3	3	6.8%	-1.1	0
35	O=C(CCc1ccccc1)NCCSc1ccccc1	4	3.1	-4	-0.4%	7.0	1
36	O=C(N/N=C/c1ccncc1)c1cccc(NC(=O)c2ccccc2Cl)c1	2	0.1	5	4.6%	2.6	-3
37	Cc1cc2ccccn2c1C(=O)c1ccc([N+](=O)[O-])o1	-4	-0.3	28	?	7.0	0
38	Cc1c(C(C)NC(=O)c2ccc3nc(Cc4ccccc4F)oc3c2)cnn1C (configuration not stated)	2	0.5	-7	0.3%	0.1	-1
39	COC(=O)c1cccc(NC(=O)C2C3CCC(C3)C2C(=O)O)c1 (configuration not stated)	4	-0.3	-9	1.1%[38.3 µM]	-0.3	5
40	O=C(COC(=O)c1ccc(C(F)(F)F)cc1)Nc1cccc(S(=O)(=O)N2CCCCC2)c1	-4	1.5	-2	-1.0%	-3.9	-1

Profiles from above:
`Cc1ccc(S(=O)(=O)N2CCCC(C(=O)NCCC(C)C)C2)cc1` (configuration not stated) across the screens: CtBP-E1A blk: -4; TRPML1 ag: -1.2; D2 potentiator: 18; PINK1 modulator: 2.6%; D2 agonist: -2.0; Six1-Eya2 inh: 5
`Cn1c(=O)c2c(nc(Br)n2CCCc2ccccc2)n(C)c1=O` across the screens: CtBP-E1A blk: -15; TRPML1 ag: 1.3; D2 potentiator: -8; PINK1 modulator: 2.5%; D2 agonist: 0.9; Six1-Eya2 inh: -21

Additional compounds follow:
Each structure is followed by: CtBP-E1A blk	TRPML1 ag	D2 potentiator	PINK1 modulator	D2 agonist	Six1-Eya2 inh
41) CCOC(=O)c1ccc(NC(=S)N2CCN(Cc3ccccc3)CC2)cc1
    4	-0.8	5	-0.1%	-0.6	7
42) Cc1ccc(N2CCN(C(=O)c3ccccc3NC(=O)/C=C\C(=O)O)CC2)cc1
    -5	0.1	-25	3.8%	-5.9	-1
43) CCc1nc2ccc(C(=O)Nc3cc(-c4ccccc4)ccc3OC)cn2c1N(CCN(C)C)CC1CC1
    -18	0.5	-11	-1.4%	-3.9	-11
44) CCOC(=O)COc1ccc(CCNC(C)=O)cc1
    10	0.4	-7	-2.4%[38.3 µM]	0.2	11
45) CC(C)CC(NC(=O)C1CCCN1C(=O)[C@@H](C)NC(=O)OCc1ccccc1)C(=O)NCC(N)=O (some centres not stated)
    .	0.9	-6	0.8%	-2.2	9
46) O=C(/C=C/c1cccc([N+](=O)[O-])c1)NCC1CCCO1 (configuration not stated)
    -1	0.8	-33	-2.1%	-1.3	12
47) CC(C)c1ccc(S(=O)(=O)N2CCN(CC(O)CN3CCOCC3)CC2)cc1 (configuration not stated)
    10	0.0	-6	2.5%	-4.9	4
48) CC(C)(C)C(=O)Nc1ccc(C(=O)OC2CCCCC2)cc1
    10	0.6	-8	3.1%[38.3 µM]	0.9	4
49) CCc1nc2c(OCc3ccc(F)cc3)cccn2c1N(C)C(=O)COc1ccccc1
    -18	7.4	1	16%	4.2	-13
50) CN(C)c1ccc(C=NNc2ccccn2)c(Cl)c1
    -13	1.8	-6	-1.1%	1.9	3
51) Cc1sc(NC(=O)c2ccco2)c(CN2CCC(C)CC2)c1C
    0	2.0	-29	-1.4%	-6.0	-1
52) CCCN1C(=O)/C(=C/c2ccc(C)o2)SC1=Nc1ccc(OC)cc1
    -16	2.4	-7	7.5%	1.1	-2
53) Cn1nc(C(C)(C)C)cc1NC(=O)C1(C)CCN1C(=O)Cc1ccc(-c2ccccc2)cc1 (configuration not stated)
    -2	-0.2	1	25%	5.8	-5
54) Cc1cc(Cl)ccc1NC(=S)Nc1ccccn1
    -2	2.4	-4	4.4%	-7.7	-3
55) CCOc1ccc(S(=O)(=O)NCc2cccnc2)cc1NC(=O)c1ccccc1
    -17	-0.4	-8	2.2%	0.9	-22
56) COc1cc(/C=N/Nc2nc(Nc3ccccc3)nc(N3CCCCC3)n2)ccc1OCC(=O)O
    -1	-0.9	2	0.7%	0.5	-2
57) O=C(Nc1ccc(Cl)c(-c2nc3ccccc3[nH]2)c1)c1ccc2c(c1)OCO2
    0	4.5	-30	-0.9%	-0.2	?
